GIV-Gai inh: inhibitors of GIV peptide binding to Galpha-i3, primary screen, biochemical, fluorescence polarization, FITC-GIV GBA peptide, rat Galphai3. percent of control (FP), % (no concentration beside the values). actives 0.42% (n = 210,000). AID 1224905, 2016. 90 min; active compounds read low; scaled: aluminum fluoride 0%, vehicle 100%;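 active = replicate mean at 85% of control or lower, very high polarization wells dropped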;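 note: wells of about 15 µL received 100 nL stock; the first replicate is given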
Target sequence (P08753 whole entry, looked up): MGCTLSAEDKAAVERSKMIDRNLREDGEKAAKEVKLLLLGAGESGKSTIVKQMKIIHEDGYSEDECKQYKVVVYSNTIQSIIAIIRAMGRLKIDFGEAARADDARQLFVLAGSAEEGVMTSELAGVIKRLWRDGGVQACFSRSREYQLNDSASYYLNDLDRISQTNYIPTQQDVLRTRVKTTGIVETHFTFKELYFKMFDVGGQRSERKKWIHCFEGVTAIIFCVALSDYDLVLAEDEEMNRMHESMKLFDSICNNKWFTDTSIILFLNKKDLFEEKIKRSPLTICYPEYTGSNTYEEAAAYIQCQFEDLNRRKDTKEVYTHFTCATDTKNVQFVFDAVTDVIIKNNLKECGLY
HCMV UL50-53 inh: inhibitors of HCMV UL50-UL53 interaction, biochemical, HTRF | HCMV UL50-UL53 nuclear egress complex (human cytomegalovirus) | normalized percent inhibition | inhibition, % (no concentration beside the values) | actives 0.15% (n = 190,000) | AID 1918969, 2023;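 active = both replicates at 50% or more, plus weaker picks with an unusually low signal ratio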;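 note: stock transfer was 100 nL into about 20 µL; 0% = negative control wells and 100% = wells with untagged competitor protein; inactives centre near -12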
Sa growth 42C: S. aureus growth inhibition at 42 and 30 °C, primary screen, LtaS inhibitor project, RN4220, two temperatures. actives 0.53% (n = 170,000). OD600, 20 h, 42 °C; active compounds read low. relative growth, % (test concentration not listed). AID 720641, 2013;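 active = growth at 42 °C up to 50% and 20 or more points under that at 30 °C, or under 10% at both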;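 note: 300 nL library stock went into each well; scaled to the means of positive and negative controls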
Sa growth 42C second temp: also measured in Sa growth 42C; calls as there; relative growth, %; measured here: growth at 30 °C;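 optical density after 20 h as mean of two plates; 100% = untreated growth and lower means inhibition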
Starred values were filed as active, the others as inactive; / = no result given; & = joins results of further samples.

SMILES	GIV-Gai inh	HCMV UL50-53 inh	Sa growth 42C	Sa growth 42C second temp
Cc1csc2nc(CSc3ccc(S(=O)(=O)N4CCOCC4)cn3)cc(=O)n12	/	-26	67	68
COc1ccc(NC(=O)c2c(C)oc3ccc(O)c(CN4CCN(Cc5ccccc5)CC4)c23)cc1	101	2	108	97
O=C(Nc1ccc(C2SCCS2)cc1)c1ccccc1	102	-12	112	79
CCN(CC)c1ccc(C2C3=C(CC(c4ccc(OC)cc4)CC3=O)Nc3ccccc3N2C(C)=O)cc1 (configuration not stated)	103	-14	/	/
O=S1(=O)C=C(Sc2nc3cc(Cl)ccc3o2)c2ccccc21	106	-8	72	46
CCOC(=O)c1sc(NC(=O)CSc2ncnc3sc(C)c(C)c23)c(C(=O)OCC)c1C	101	0	/	/
CC1Cc2ccccc2N1c1ccc2ccccc2n1 (configuration not stated)	/	-1	94	100
CN(Cc1ccco1)C(=O)c1ccc(N2CCCS2(=O)=O)cc1	97	-11	111	88
Cc1ccc(O)c(Nc2nc3ccccc3c3nncn23)c1	111	-10	103	84
Cc1cc(C)c2c(n1)nn1c(C3CC3)cc(C(F)(F)F)nc21	100	/	90	86

Entries of single compounds from above. Values in the order: GIV-Gai inh	HCMV UL50-53 inh	Sa growth 42C	Sa growth 42C second temp
COc1ccc(NC(=O)c2c(C)oc3ccc(O)c(CN4CCN(Cc5ccccc5)CC4)c23)cc1 as listed: 101	2	108	97
Cc1csc2nc(CSc3ccc(S(=O)(=O)N4CCOCC4)cn3)cc(=O)n12 as listed: /	-26	67	68
CCN(CC)c1ccc(C2C3=C(CC(c4ccc(OC)cc4)CC3=O)Nc3ccccc3N2C(C)=O)cc1 (configuration not stated) as listed: 103	-14	/	/
CCOC(=O)c1sc(NC(=O)CSc2ncnc3sc(C)c(C)c23)c(C(=O)OCC)c1C as listed: 101	0	/	/
O=C(Nc1ccc(C2SCCS2)cc1)c1ccccc1 as listed: 102	-12	112	79

3 compounds already listed, sorted by the value under Sa growth 42C second temp, smallest number first:
| structure | Sa growth 42C second temp |
| --- | --- |
| O=S1(=O)C=C(Sc2nc3cc(Cl)ccc3o2)c2ccccc21 | 46 |
| Cc1cc(C)c2c(n1)nn1c(C3CC3)cc(C(F)(F)F)nc21 | 86 |
| COc1ccc(NC(=O)c2c(C)oc3ccc(O)c(CN4CCN(Cc5ccccc5)CC4)c23)cc1 | 97 |

More structures.
SMILES	GIV-Gai inh	HCMV UL50-53 inh	Sa growth 42C	Sa growth 42C second temp
CCCN(C(=O)Cc1c(C(=O)O)n(C)c2ccccc12)c1cccc(C)c1	91	0	/	/
c1ccc(-n2nnnc2NCC2CCCCC2)cc1	/	-13	101	90
CCOC(=O)c1ccc2c(c1)N(Cc1cccc(C(F)(F)F)c1)C(=O)c1ccccc1S2(=O)=O	102	/	116	95
CC(C)c1nnc(NC(=O)c2cn(Cc3ccccc3)cc3c(=O)n(-c4ccccc4)nc2-3)s1	100	-39	/	/
Cc1nn(Cc2ccccc2Cl)c(C)c1CN(C)Cc1cc(=O)n2c3c(sc2n1)CCCC3	/	-17	88	91
O=C(N/C=C/c1ccsc1)Nc1cc(C(F)(F)F)cc(C(F)(F)F)c1	105	32	-2.1*	-0.6*
Cc1ccc2c(n1)sc1c(=O)n(CCc3ccccc3)nnc12	101	-54	85	81
CCc1ccc(C2=C(C)C(N3CCC(C(=O)NCCc4ccco4)CC3)=NS2(=O)=O)cc1	101	/	91	90
COc1cc(SC)c(OC)cc1SC	108	0	105	90
COc1ccccc1NC(=O)C1=C(C)Nc2nc3ccccc3n2C1c1cccc(OC)c1OC (configuration not stated)	101	0	89	83
CCN1C(=O)c2ccc(-c3nc4cc(Cl)ccc4c(=O)o3)cc2C1=O	109	/	110	92
O=C(NC1CCN(Cc2ccccc2)CC1)c1cncc(Br)c1	/	-14	100	92
c1ccc(-c2cc(NC3CCCC3)n3cnnc3n2)cc1	103	-4	112	84
CC1CCCCN1C(=O)CSc1nnc(-c2ccccc2)n1-c1ccccc1 (configuration not stated)	/	-7	109	94
CCOC(=O)N1CCC(NC(c2ccc(F)cc2)c2nnc(-c3ccccc3)o2)CC1 (configuration not stated)	104	-36	96	89
O=C(CN(CCc1ccc2c(c1)OCCO2)CC(=O)NC1CC1)NC1CC1	/	-24	100	97
O=S(=O)(NC1CCCCC1)c1ccccc1	/	-24	101	82
Clc1ccc(C=Nc2ccc3c(c2)OCCOCCOCCO3)c(Cl)c1	100	/	123	94
O=C(CSC1=NCCS1)Nc1ccc(Cl)cc1C(F)(F)F	/	-36	90	92
N#Cc1c(F)cccc1N1CCC(C(N)=O)CC1	107	-11	105	97
CCCCN1CC(=O)N(c2ccc(C)c(C)c2)[C@@H]2CS(=O)(=O)C[C@@H]21	101	-9	/	/
COc1ccc(CNC(=O)CCCc2nnc3n(CCC(C)C)c(=O)c4sccc4n23)cc1	104	/	120	98
Cc1noc(C)c1C(=O)n1ccc(-c2cccs2)n1	96	-24	84	81
CCNC(=O)c1c(NC(=O)c2cc(=O)c3ccc(C)c(C)c3o2)sc2c1CCCC2	101	-15	107	90
O=C(O)/C=C/C(=O)NC1CCN(Cc2ccccc2)CC1	101	-10	111	90
COc1ccc(-c2nc3n(c2C(=O)Nc2nc(-c4ccc(F)cc4)cs2)CCS3(=O)=O)cc1	107	-21	/	/
Cc1sc(-c2ccno2)cc1S(=O)(=O)NC1CC1	107	-34	/	/
CC(C)CC(=O)Nc1c(C(=O)Nc2cccc(F)c2)oc2ccccc12	108	-7	109	100
Cc1cccc(NC(=O)c2ccc3c(O)c(S(=O)(=O)c4ccccc4)c(=O)[nH]c3c2)c1C	100	/	109	80
CCc1cc2c(cc3c(=O)n(CC(=O)NCCN4CCOCC4)ncn32)s1	105	-40	103	94
COc1cc(OC)c(CC2C(=O)Nc3ccccc32)c(OC)c1 (configuration not stated)	100	1	/	/
CC1(C)C(=O)NCCN1C(=O)CSc1nccc(-c2ccccc2)n1	100	-4	86	86
CCN(CC)c1nc2n(c(=S)n1)CCS2	114	4	75	69
O=C(O)C1CCN(C(=O)CSc2ncnc3ccccc23)CC1	/	-16	80	91
Cc1cccc(C)c1NC(=O)c1cn(-c2ccccc2)nc1-c1ccccc1	103	-20	/	/
CC(Sc1nnc(CN2CCCC2)n1Cc1ccccc1)C(=O)c1ccc(NS(C)(=O)=O)cc1 (configuration not stated)	/	-4	95	94
Nc1nc2ncc(-c3ccc(Cl)cc3)c(N)n2n1	95	-21	/	/
Cc1nc2ccc(S(=O)(=O)NC(CC(C)C)C(=O)N3CCn4c3nc3ccccc34)cc2s1 (configuration not stated)	100	2	89	92
CCCCn1cc(S(=O)(=O)c2ccc(OCC)cc2)c(=O)c2cc(OC)c(OC)cc21	112	-40	110	79
O=C(Nc1ccc(N2CCOCC2)c2nonc12)c1cccs1	110	4	103	105

Continued; the last 2 above are carried over.
SMILES	GIV-Gai inh	HCMV UL50-53 inh	Sa growth 42C	Sa growth 42C second temp
CCCCn1cc(S(=O)(=O)c2ccc(OCC)cc2)c(=O)c2cc(OC)c(OC)cc21	112	-40	110	79
O=C(Nc1ccc(N2CCOCC2)c2nonc12)c1cccs1	110	4	103	105
Cc1ccc(Cl)cc1N1CCN(C(=O)Cn2ncc3c(=O)oc4ccccc4c32)CC1	100	-14	81	93
CC1=C(C(=O)Nc2ccccn2)C(c2ccc3c(c2)OCO3)n2ncnc2N1 (configuration not stated)	104	-1	/	/
CCc1ccccc1NC(=O)NCc1c(C)nn(-c2ccccc2)c1-n1cccc1	110	2	/	/
Cc1ccccc1-c1nc(CNC(=O)Nc2ccccc2)c(C)o1	101	/	78	94
Cn1ccnc1C(=O)c1cccc(S(=O)(=O)N2CCCc3ccccc32)c1	/	-16	103	92
CCc1ccc(Nc2ncnc3sc4c(c23)CCCC4)cc1	99	/	74	64
COC(=O)c1cccc(CSc2ncccc2C(=O)O)c1	103	-5	117	94
C#CCNC(=O)c1cc(=O)[nH]c2ccccc12	/	-7	90	86
CCOc1ccccc1NC(=O)CN1c2ccccc2S(=O)(=O)c2ccccc21	96	/	90	93
CCOc1ccccc1CNC(=O)Cn1nc(C)c2nn(-c3ccc(Cl)cc3)c(C)c2c1=O	96	/	111	93
Cc1sc2ncc(C(=O)N3CCN(Cc4ccc5c(c4)OCO5)CC3)c(=O)n2c1C	106	-21	/	/
Cc1cc(C)n2nc(N(Cc3cccc(F)c3)S(=O)(=O)c3ccc(Cl)cc3)nc2n1	100	-16	/	/
COc1ccc(NC(=O)c2ccc3oc(=O)c(S(=O)(=O)c4ccccc4)cc3c2)cc1	105	/	93	87
Cc1ccc(-c2noc(-c3cc(-c4ccc(F)cc4)n[nH]3)n2)cc1	104	/	90	95
CC(Oc1ccc(Cl)cc1)C(=O)NCc1ccco1 (configuration not stated)	112	-1	103	96
CC1(C)CC(=O)C(C2C3=C(CC(C)(C)CC3=O)Oc3ccc(Br)cc32)=C(O)C1 (configuration not stated)	99	/	100	81
CC(=O)Nc1c(C(C)(C)C)nn2c(C)cc(C(F)(F)F)nc12	98	1	91	87
CN(Cc1ccccc1)C(=O)C1CCCN(c2ncnc3onc(-c4ccc(F)cc4)c23)C1 (configuration not stated)	99	-33	92	70
Cc1ccc2[nH]c3c(=O)n(CC(=O)N(C)c4cc(Cl)ccc4C)ncc3c2c1	101	/	95	88
CCN1CCc2c(sc(-n3cccc3)c2C(C)NC(=O)Nc2cc(OC)cc(OC)c2)C1 (configuration not stated)	106	-6	/	/
O=C(c1[nH]nc2c1CCc1ccccc1-2)N1CCN(Cc2ccc(F)cc2)CC1	94	-11	/	/
Cn1c(CN(c2ccc(F)cc2)S(C)(=O)=O)nnc1SCC(=O)c1ccc(Cl)cc1	107	-13	/	/
COc1ccc(OC)c(NC(=O)NCC(c2cccnc2)c2cn(C)c3ccccc23)c1 (configuration not stated)	103	-32	/	/
COc1cccc(CNC(=O)Cn2c(=O)cc(C)c3c(C)nn(C)c32)c1OC	96	/	97	86
O=C1CN(Cc2ccccc2)CC(=O)N1	103	4	102	92
Cc1cccc(CS(=O)(=O)Cc2ccc(C(=O)NCc3ccccc3)o2)c1	106	/	111	95
O=C(NCCc1ccccc1)c1ccc(Cn2c(SCc3ccccc3F)nc3cccnc32)cc1	102	/	93	105
NC1=NC(=O)C(CC(=O)c2ccc(Cl)cc2)S1 (configuration not stated)	100	6	115	96
Fc1ccc(Nc2nc3nonc3nc2Nc2ccccc2F)cc1	100	-40	-0.6*	-0.8*
Cc1nc2ccc(S(=O)(=O)N(C)CC(=O)NCc3ccc4c(c3)OCO4)cc2s1	111	1	105	103
OC[C@H]1O[C@H](O[C@]2(CCl)O[C@H](CCl)[C@@H](O)[C@@H]2O)[C@H](O)[C@@H](O)[C@H]1Cl	/	-49	88	87
COc1ccc(-c2cc(C(F)(F)F)n3nc(C(=O)NCCCn4ccnc4)c(Cl)c3n2)cc1	92	-53	/	/
CCN(CC)CCOc1c(Br)ccc2c1sc1nc3n(c(=O)c12)CCC3	110	-16	93	85
NNC(=S)Nc1ccccc1	/	-10	87	69
CSc1nc2ccccc2c2nc(-c3ccncc3)nn12	113	6	/	/
Cc1c(C(=O)N2CCCC2)oc2ccc3c(c12)C(=O)CC(C)(c1ccc(Cl)cc1)O3 (configuration not stated)	99	6	/	/
Nc1ccc(OCc2ccccc2)cc1	103	/	83	85
C1CN(c2nnn(CC3CC3)n2)CCO1	95	-4	106	99
Cc1cc(NC(=O)CC(CC(=O)O)c2ccc(C(F)(F)F)cc2)no1 (configuration not stated)	102	6	109	97
CC(Oc1ccc2ccc(=O)oc2c1)C(=O)O (configuration not stated)	100	-12&-24	/	/
CCC(=O)Nc1ccccc1C(=O)N1CCCCC1	99	4	79	93
Nc1cccc(C(=O)Nc2cccc(C(F)(F)F)c2)c1	/	-24	99	86
O=C(O)CC(NC(=O)C12CC3CC(CC(C3)C1)C2)c1ccc(Cl)cc1 (configuration not stated)	/	5	99	92
O=C(NN1C(=O)c2ccccc2C1=O)c1ccccc1	/	-8	131	109
Cc1ccc(CNC(=O)CSc2nc3n[nH]c(C)c3c(=N)n2-c2ccccc2Cl)cc1	102	/	106	73
CCOC(=O)C1CCN(C(=O)c2ccc3nc(N4CCCCC4)sc3c2)CC1	96	-7	/	/
CCOC(=O)N1CCN(Cn2nc(COc3ccc(C4CCCCC4)cc3)n(C)c2=S)CC1	98	-10	101	97
N#C/C(=C\c1ccccc1)c1cccc(Cl)c1	103	-10	44*	74*
CC1S/C(=N\N=C2CCC(C(C)(C)C)CC2)NC1=O (configuration not stated)	103	8	96	101
CC(Sc1nnc(-c2ccc(F)cc2)n1Cc1ccccc1)C(=O)NCc1ccco1 (configuration not stated)	/	2	102	97
(cont.)
SMILES	GIV-Gai inh	HCMV UL50-53 inh	Sa growth 42C	Sa growth 42C second temp
CC1Cc2ccccc2N1C(=O)Cn1c(=O)oc2cc(S(=O)(=O)N3CCCC3)ccc21 (configuration not stated)	106	-7	99	94
CCc1ccc(NC(=O)CSc2nc3ccccc3[nH]2)cc1	/	-6	95	82
Cc1ccc2[nH]c(=O)c3cc(C(=O)NCC4CCCO4)sc3c2c1 (configuration not stated)	101	-6	118	86
CSc1nc2ccc(S(=O)(=O)N(C)C)cc2s1	/	-12	103	87
Cc1ccccc1CSc1nc2ccsc2c(=O)n1Cc1ccccc1	103	/	123	88

Compound activity deposited in PubChem by ICCB-Longwood Screening Facility, Harvard Medical School.
